# Source: PubChem (ICCB-Longwood Screening Facility, Harvard Medical School)
# GIV Gai3 FP: inhibitors of GIV peptide binding to Galpha-i3, primary screen, biochemical, fluorescence polarization, FITC-GIV GBA peptide, rat Galphai3; 210,000 tested, 0.42% active; percent of control (FP), % (concentration not given with the values); 90 min; stronger effect = lower value; scaled: aluminum fluoride 0%, vehicle 100%; Guanine nucleotide-binding protein G(i) subunit alpha-3 (Rattus norvegicus), P08753;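 active means replicate mean at 85% of control or lower, very high polarization wells dropped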;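 further: wells of about 15 µL received 100 nL stock; the first replicate is given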
# Target sequence (P08753 whole entry, looked up): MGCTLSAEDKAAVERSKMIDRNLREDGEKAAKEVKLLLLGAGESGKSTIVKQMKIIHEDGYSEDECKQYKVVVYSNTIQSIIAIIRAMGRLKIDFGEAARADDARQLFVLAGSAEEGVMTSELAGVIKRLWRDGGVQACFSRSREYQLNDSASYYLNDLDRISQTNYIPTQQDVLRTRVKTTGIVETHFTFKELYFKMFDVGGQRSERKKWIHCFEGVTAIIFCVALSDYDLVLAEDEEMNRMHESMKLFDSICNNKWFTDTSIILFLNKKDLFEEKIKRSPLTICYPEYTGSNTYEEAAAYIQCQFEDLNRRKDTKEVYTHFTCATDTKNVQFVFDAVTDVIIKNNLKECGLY
# Starred values were filed as active, the others as inactive. Some of the compounds tested, so the mix of outcomes need not match the whole.
SMILES,GIV Gai3 FP
Cc1cc(I)ccc1N1C(=O)C2C3c4ccccc4C(CO)(c4ccccc43)C2C1=O (configuration not stated),116.8
O=[N+]([O-])c1cccc(-c2nc(-c3ccc(Oc4ccccc4)cc3)c(-c3ccc(Oc4ccccc4)cc3)[nH]2)c1,108.6
CCOc1ccc(Br)c(C2Nc3ccc(C)cc3[C@H]3OCC[C@@H]23)c1 (some centres not stated),99.7
CN(CCCNC(=O)C1CCCN(C(=O)c2cccc(Cl)c2)C1)c1ccccc1 (configuration not stated),101.7
Cc1nc(-c2cnccn2)[nH]c(=O)c1C,101.6
COc1ccc(-c2c(C(F)(F)F)oc3cc(OC(=O)c4ccncc4)ccc3c2=O)cc1OC,107.5
CCOC(=O)c1c(NC(=O)C(C)Sc2nnc(CNC(=O)c3ccc([N+](=O)[O-])cc3)n2C)sc2c1CCCCC2 (configuration not stated),106.4
CCCN1C=NS(=O)(=O)c2cc(C(=O)NC3CC3)ccc21,102.1
O=C(NCCCN1CCOCC1)c1ccc2c(=O)n(-c3cccc(C(F)(F)F)c3)c(=S)[nH]c2c1,114.8
COc1ccc(C(O)(C(=O)NN(C(=O)c2ccccc2)c2cccc(C)c2)c2ccc(OC)cc2)cc1,104.5
COc1cc(C2C(C#N)=C(N)Oc3n[nH]c(C)c32)ccc1OC(=O)N1CCOCC1 (configuration not stated),109.7
Cc1nc(-c2ccc(C)c(S(=O)(=O)NCC(=O)Nc3ccc(Cl)cc3)c2)no1,97.3
CNS(=O)(=O)c1ccc2nc(NC(=O)c3cncc(Br)c3)sc2c1,106.9
COc1cc(-c2nc(C=Nc3ccc(C)c(Cl)c3)c(O)o2)cc(OC)c1OC,104.8
CCCOc1c(C(=O)OC)sc2ccc(NC(=O)NCCc3ccccc3)cc12,99.0
Cc1ccccc1-c1noc(CCn2nc(-c3ccc4c(c3)OCO4)ccc2=O)n1,101.9
CCC1C(=O)N=C(SCC(=O)Nc2nc3ccccc3s2)NC1=O (configuration not stated),101.7
Clc1ccccc1CN1C2=NCCN2c2ccccc21,101.1
CCCNS(=O)(=O)c1ccc2c(c1)C(C)(C)CN2CC(=O)N1CCCC1,111.6
Cc1cc(C)cc(NC(=O)Cn2cnc3c(sc4ncccc43)c2=O)c1,98.9
Cc1cc(CN2CCC(N3CCCCC3)CC2)on1,104.8
O=C(CSc1nc2cc(C(=O)NCC3CCCO3)ccc2c(=O)n1CC1CCCO1)c1ccc(F)cc1 (configuration not stated),110.4
CCN(CC)CCOc1cc2c(cc1Cl)-c1cc(Cl)c(OCCN(CC)CC)cc1C2=NNC(N)=S,111.6
CCOc1ccccc1N/C(SCc1cccc(F)c1)=C(/C#N)C(=O)NCCc1ccc(OC)c(OC)c1,97.2
CNc1nc(C(N)=O)c(NC(=O)c2ccc3c(c2)OCO3)s1,99.0
O=S1(=O)Nc2c(Cl)cccc2-c2ccccc21,112.1
CC1=NN(C(=O)c2cccc([N+](=O)[O-])c2)C(O)(c2ccc(Cl)cc2)C1 (configuration not stated),106.4
Cc1ccccc1-n1c(O)c(C=NC(C)(CO)CO)c(=O)n(-c2ccccc2C)c1=S,119.3
O=C(Cn1c2ccccc2c2nc3ccccc3nc21)c1ccccc1,119.9
COc1ccc(C2(C(=O)NCC3(c4ccccc4)CCCOC3)CCOCC2)cc1OC (configuration not stated),101.7
Cc1ccc(-n2c(-c3ccc(Br)cc3)cn3c4c(=O)n(C)c(=O)n(C)c4nc23)cc1C,109.2
COc1ccc(-c2nc3c4ccccc4n(CC(=O)c4c[nH]c5ccccc45)c(=O)n3n2)cc1,104.4
O=C(c1ccc[nH]c1=S)N1CCC(Cc2ccccc2)CC1,111.1
CCC(C)NC(=O)C1CCN(c2c(NC(C)=O)c(C)nn2-c2ccccc2)CC1 (configuration not stated),103.5
CC1CCN(C(=O)c2ccccc2NC(=O)c2cccc(S(=O)(=O)N3CCCC3)c2)CC1,104.3
CCOc1ccc(Oc2cc3c(cc2N)n(C)c(=O)c(=O)n3C)cc1,96.8
COc1cccc(C2CC(c3cccs3)=NN2C(=O)CSc2nnc(CNC(=O)c3ccco3)n2C)c1OC (configuration not stated),108.2
Cc1csc2c(=O)n3c(nc12)CCCCC3,108.9
COc1cccc(CNC(=O)C2CCN(c3ncccc3-c3nc(-c4cccc(C)c4)no3)CC2)c1,102.0
CC(C)CNC(=O)c1n[nH]c2c1CCCCCC2,105.0
Cc1c(C(=O)N2CCN(Cc3ccccc3)CC2)sc2ncn(CC(=O)Nc3cccc(C(F)(F)F)c3)c(=O)c12,110.1
COc1ccc(-c2cn3cc(Cl)ccc3n2)cc1F,101.0
CC1CCN(Cc2c(C(=O)O)nnn2-c2nonc2N)CC1,104.9
CCOc1ccc(N2C(=O)C(=O)C3=C(c4ccccc4)Nc4ccccc4SC32C(=O)OC)cc1 (configuration not stated),108.7
COc1ccc(C2C3=C(CCCC3=O)N(c3ccccc3)C(=N)/C2=C(/O)c2ccccc2)cc1 (configuration not stated),118.1
CCCc1ccc(-c2c3c(c(-c4ccccc4)n2-c2cccc4ccccc24)C(=O)c2ccccc2C3=O)cc1,109.5
COc1ccc(NC(=O)C2CCN(c3ccc(-n4cccc4)cn3)CC2)cc1,106.3
COCCn1c(SC(C(=O)NCc2ccccc2)C(=O)NCc2ccccc2)nc2cc(C(=O)OC)ccc2c1=O,104.1
CC1=NN(c2ccccc2)C(=O)C1C(=O)c1ccccc1 (configuration not stated),120.3
O=c1[nH]c(N2CCc3ccccc3C2)nc2c(-c3cccc(Br)c3)csc12,113.1
CCOC(=O)C1(C)C=C(Nc2ccc(S(N)(=O)=O)cc2)C(=O)N1c1ccccc1 (configuration not stated),116.7
C=C(C)C(=O)OCCOC(=O)C1=C(C)OC(N)=C(C#N)C1c1ccc([N+](=O)[O-])cc1 (configuration not stated),106.0
CC(=O)Nc1ccc(C)cc1S(=O)(=O)NCCC1CCN(C(=O)NC2CCCCC2)CC1,104.6
c1ccc(-c2nc3ccc(-c4ccc5nc(-c6ccccc6)c(-c6ccccc6)nc5c4)cc3nc2-c2ccccc2)cc1,119.8
C#CCOc1cccc(C2CC(=O)Nc3c2cnn3-c2nc3ccccc3s2)c1 (configuration not stated),103.5
CCN(CC)C(=O)c1ccc(-c2nc3cc(NS(=O)(=O)c4ccccc4C)ccc3n2C)cc1,102.4
COc1ccc(NS(=O)(=O)c2cc(-c3noc(C(=O)N4CCCC4)n3)sc2C)c(OC)c1,100.6
CCOc1ccc(Nc2nc(N3CCOCC3)nc(C)c2[N+](=O)[O-])cc1,102.1
COc1ccc(OC)c(S(=O)(=O)N2CCn3cccc3C2c2ccc(F)c(F)c2)c1 (configuration not stated),106.4
COc1ccc(S(=O)(=O)N(CC(=O)Nc2ccccc2C(F)(F)F)c2ccc(Cl)cc2)cc1,114.2

# The list goes on.
SMILES,GIV Gai3 FP
COc1cccc(N/C(SCc2ccc(C)cc2C)=C(/C#N)C(N)=O)c1,108.6
CNC1(c2nnnn2-c2ccccc2)CCCC1,103.1
CC(C)Oc1ccc(-c2noc(-c3nn(-c4cccc(F)c4)ccc3=O)n2)cc1,97.2
COc1cc(/C=C2\N=C(c3ccccc3)N(c3ccc(Br)c(C)c3)C2=O)cc(OC)c1OC,108.8
CCOc1cc(C2Nc3ccc4ccccc4c3C3=C2C(=O)CC(C)(C)C3)cc(Br)c1OC (configuration not stated),119.5
O=C(Cc1ccccc1)NCc1nc(-c2ccc3c(c2)nnn3C2CCCC2)no1,99.1
COc1cc([N+](=O)[O-])ccc1N=Cc1nc(-c2cc(OC)c(OC)c(OC)c2)oc1O,101.3
Cn1c(CNC(=O)C2CCC2)nc2c1CN(S(=O)(=O)c1ccc(Cl)s1)CC2,104.2
CCOc1ccc(NS(=O)(=O)c2cc(-c3nc(-c4ccccc4)cs3)n(C)c2C)cc1,105.5
O=S(=O)(NC1CCCCC1)c1ccc(-c2cnc(C3CC3)o2)s1,106.2
Cc1cc(N2CCOCC2)nc2ccc(NC(=O)CC3CCCC3)cc12,110.7
CC(O)[C@@]12CC=CC[C@@H]1CC1C3CC=C4C[C@@H](O)CC[C@]4(C)C3CC[C@@]12C (some centres not stated),100.7
Cc1ccc(NS(=O)(=O)c2cc(-c3nc(C(C)(C)C)cs3)cs2)cc1,100.8
CCOC(=O)C1=C(CSc2nc(CC)c(C)cc2C#N)OC(N)=C(C#N)C1c1ccccc1OC (configuration not stated),114.2
Cc1nc2scc(C)n2c(=O)c1NC(=O)c1ccccc1Br,92.8
CCOC(=O)c1[nH]c(C)c(CCC(=O)N2CCCC(C(=O)NC3CCCCC3)C2)c1C (configuration not stated),113.0
CC(C)C(=O)NCCC1CCN(C(=O)c2ccc(F)cc2)CC1,101.8
Nc1c(C(=O)Nc2ccccc2)sc2nc3c(c(-c4cccs4)c12)CCC3,107.5
Cn1c(=O)c2nc(SCCC(=O)Nc3ccc(Cl)cc3F)n(C)c2n(C)c1=O,103.6
CCOc1cc(C2C(C(=O)OC)=CN(Cc3ccc(OC)c(OC)c3)C=C2C(=O)OC)cc([N+](=O)[O-])c1O,100.0
O=C1N=C2N(CCN3CCOCC3)c3ccccc3N2/C1=C\c1ccc([N+](=O)[O-])s1,98.4
Cc1cccc(NS(=O)(=O)c2c(C)sc(C)c2-c2n[nH]c(C)c2C)c1,99.3
CC(C)c1nnc(-c2coc(S(=O)(=O)N3CCOCC3)c2)o1,98.5
O=C1C2C(c3ccccc3Cl)OC3(C(=O)c4ccccc4C3=O)C2C(=O)N1c1ccccc1C(F)(F)F (configuration not stated),100.3
COc1ccc(NC(=O)C2CCCN(S(=O)(=O)c3cc(-c4noc(C)n4)cs3)C2)c(OC)c1 (configuration not stated),109.8
O=C(NCc1ccc2c(c1)OCO2)c1nc(-n2cnnc2)ccc1Br,107.6
CN(CCNC(=O)C1CCCN(c2nc3ccccc3[nH]2)C1)C1CCCCC1 (configuration not stated),104.8
CCC(=O)Nc1cccnc1-c1ccc(C(=O)Nc2ccc3c(c2)OCO3)cc1,108.4
COc1cccc(-c2cc3n(C)c(C)c(CCC(=O)N4CCN(C)CC4)c(=O)n3n2)c1,107.8
Cc1cc(C2CCCN2C(=O)c2ccc(C)s2)no1 (configuration not stated),102.2
COc1ccccc1CNS(=O)(=O)c1cccc2nonc12,109.4
O=C1c2ccccc2-c2c(Nc3ccccc3)c(=O)[nH]c3cccc1c23,111.2
CCOc1ccc(-c2noc(CSc3nccn3-c3ccc(C)cc3)n2)cc1OC,104.5
Cc1cc(N2C(=O)NC(=O)/C(=C/c3ccc(O)cc3)C2=O)ccc1Br,127.3
Cc1nnc(-c2cc(NC(=O)C3CCC3)c(C)s2)o1,100.0
Cc1ccc(C(=O)NCCc2sc3nc(-c4ccccc4)nn3c2C)cc1C,101.9
Nc1cc(-c2cccc(F)c2)[nH]n1,105.3
CC(C)(C)c1ccc(Oc2cc(Oc3ccc(C(C)(C)C)cc3)c3noc4c3c2C(=O)c2ccccc2-4)cc1,117.4
CN(C)C(=O)c1csc2nc(-c3ccc(NC(=O)Cc4ccc(F)cc4)cc3)cn12,106.5
CCOc1cccc(CN2C(=O)c3ccccc3CC2(C)C(=O)NCc2cccc(OC)c2)c1 (configuration not stated),102.2
COc1cccc(C2Oc3c(OC)cccc3C3CC(c4cccs4)=NN32)c1 (configuration not stated),121.9
CCC(C)NC(=O)c1cc(COc2ccc(NC(=O)c3ccccc3)cc2)on1 (configuration not stated),97.4
Cn1c(SCc2ccc(Br)cc2)nnc1-c1ccc2c(c1)OCCCO2,107.1
CCc1cc(Nc2ccc(N3CCOCC3)c(Cl)c2)n2ncnc2n1,97.3
CCOC(=O)c1c(CSc2nc(C)cc(C)c2C#N)n(C)c2cc(Br)c(OC(C)=O)cc12,106.7

# Six of these compounds, set out differently:
Molecule	GIV Gai3 FP
Cc1csc2c(=O)n3c(nc12)CCCCC3	108.9
COc1cccc(CNC(=O)C2CCN(c3ncccc3-c3nc(-c4cccc(C)c4)no3)CC2)c1	102.0
CC(C)CNC(=O)c1n[nH]c2c1CCCCCC2	105.0
Cc1c(C(=O)N2CCN(Cc3ccccc3)CC2)sc2ncn(CC(=O)Nc3cccc(C(F)(F)F)c3)c(=O)c12	110.1
COc1ccc(-c2cn3cc(Cl)ccc3n2)cc1F	101.0
CC1CCN(Cc2c(C(=O)O)nnn2-c2nonc2N)CC1	104.9

# (next part)
SMILES,GIV Gai3 FP
O=C1NCCN1Cc1ccccc1F,108.3
COc1ccc(C2C3=C(CCCC3=O)NC3=C2C(=O)CCC3)cc1,106.7
Cc1c(C(=O)N2CCN(Cc3ccccc3)CC2)sc2ncn(C)c(=O)c12,101.6
Cc1ccc(C)c(N2CCN(S(=O)(=O)c3cc(-c4nc(C(C)C)cs4)sc3C)CC2)c1,103.0
CC(C)c1csc(C2CCCN(C(=O)C3CC3)C2)n1 (configuration not stated),100.3
Cc1c(-c2nc(-c3ccc(NC(=O)c4cccs4)cc3)no2)cccc1[N+](=O)[O-],103.6
CCOc1ccc(NC(=O)CSc2nc3ccccc3c(=O)n2NC(=O)c2ccccc2)cc1,112.8

# Six entries out of the list above, arranged by their value in GIV Gai3 FP, rising.
SMILES,GIV Gai3 FP
CC(C)c1csc(C2CCCN(C(=O)C3CC3)C2)n1 (configuration not stated),100.3
Cc1c(C(=O)N2CCN(Cc3ccccc3)CC2)sc2ncn(C)c(=O)c12,101.6
Cc1ccc(C)c(N2CCN(S(=O)(=O)c3cc(-c4nc(C(C)C)cs4)sc3C)CC2)c1,103.0
Cc1c(-c2nc(-c3ccc(NC(=O)c4cccs4)cc3)no2)cccc1[N+](=O)[O-],103.6
COc1ccc(C2C3=C(CCCC3=O)NC3=C2C(=O)CCC3)cc1,106.7
CCOc1ccc(NC(=O)CSc2nc3ccccc3c(=O)n2NC(=O)c2ccccc2)cc1,112.8
